Screening data (PubChem BioAssay)
T cruzi repl: blocks replication of Trypanosoma cruzi; T. cruzi beta-gal in NIH3T3, luminescence, 90 h; actives 1.4% (n = 300,000); inhibition, % (no concentration beside the values);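 active means mean inhibition across valid replicates above about 55%, limit read from the data; inconclusive means mean below that limit but half or more replicates reach it; inactive means mean below it, under half of replicates reach it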;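 further: signal also drops with host cell toxicity which is not excluded here; 0% = plate median of DMSO wells and 100% = zero luminescence signal; higher percent means less beta-gal luminescence so fewer parasites; stock transfer was 50 nL into about 50 µL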
Ecoli rRNA inh: inhibits bacterial ribosomal RNA function over humanized ribosomes | actives 1.6% (n = 350,000) | E. coli WT GFP vs humanized-ribosome RFP mutants, fluorescence, 24 h; hits give low values; DMSO median 0, no signal -100 | GFP signal change (wild-type ribosome), % (concentration not given with the values);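 active means significant combined selectivity score with lowered wild-type GFP, culture density cut under 30%, mutant RFP and density less affected; inactive means any of these conditions unmet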; further: one replicate is shown; some compounds called inactive have numbers as strong as hits
FGF22 binding: binders of recombinant human FGF22 by thermal shift | Q9HCT0 | SYPRO orange fluorescence; percent of sucrose octasulfate shift, DMSO zero | calls only at 9.99 µM | actives 1.5% (n = 340,000) | AID 651658;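 active means melting point raised past a set limit in the mean and every replicate; inconclusive means no clear call; three in four hits are not shown here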
Target sequence (Q9HCT0 whole entry, looked up): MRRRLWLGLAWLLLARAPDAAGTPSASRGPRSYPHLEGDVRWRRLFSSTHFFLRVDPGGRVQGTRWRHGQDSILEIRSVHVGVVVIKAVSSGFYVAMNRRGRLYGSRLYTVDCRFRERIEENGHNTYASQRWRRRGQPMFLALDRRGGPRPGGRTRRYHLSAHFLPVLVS
RanGTP-Impb inh: inhibitors of RanGTP-importin-beta interaction, primary screen, biochemical, FRET, CFP-Ran, YFP-importin-beta, homogeneous. cell-free CFP-Ran/YFP-importin-beta FRET ratio. inhibition, % (concentration not given with the values). actives 1.1% (n = 300,000). AID 2216;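 active means most replicates above 15%; inconclusive means exactly half above 15%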;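 further: 0% = DMSO wells and 100% = Ran loaded with GDP instead of GTP; wells of about 40 µL received 100 nL stock; the first replicate is given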
AF4-AF9 inh: blocks AF4 peptide binding to human AF9; P42568; AlphaScreen, biotin-AF4 peptide binding to FLAG-AF9; inhibition, % at 10 µM; actives 0.47% (n = 350,000); AID 651704;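 active means every replicate reaching a set inhibition limit, whatever the replicate mean, cut at about 25% in these data; inconclusive means mean inhibition reaches that limit but some replicates miss it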;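 further: 0% = plate neutral control median and 100% = total signal loss; the record names both 10 and 1 µM as test concentration; the first replicate is given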
Target sequence (P42568 whole entry, looked up): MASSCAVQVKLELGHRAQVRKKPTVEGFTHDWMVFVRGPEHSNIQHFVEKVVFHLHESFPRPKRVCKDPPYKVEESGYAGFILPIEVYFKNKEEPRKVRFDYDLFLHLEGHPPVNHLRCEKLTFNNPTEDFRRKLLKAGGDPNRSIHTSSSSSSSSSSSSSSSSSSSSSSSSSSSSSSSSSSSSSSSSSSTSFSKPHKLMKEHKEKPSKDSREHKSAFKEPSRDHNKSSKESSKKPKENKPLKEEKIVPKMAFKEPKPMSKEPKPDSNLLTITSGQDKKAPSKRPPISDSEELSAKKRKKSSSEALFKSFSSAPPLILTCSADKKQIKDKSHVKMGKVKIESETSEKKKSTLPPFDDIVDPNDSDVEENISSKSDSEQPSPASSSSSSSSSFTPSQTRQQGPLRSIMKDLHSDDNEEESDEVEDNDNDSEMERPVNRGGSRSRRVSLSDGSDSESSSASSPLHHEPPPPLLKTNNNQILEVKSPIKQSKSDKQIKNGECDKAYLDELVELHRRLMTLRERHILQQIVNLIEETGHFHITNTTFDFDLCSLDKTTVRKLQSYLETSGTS
Beta cell apopt: blocks beta cell apoptosis; protection from apoptosis, % (test concentration not listed); INS-1E cytokine-induced death, ATP luminescence, 48 h; percent of positive-control rescue, neutral wells zero; AID 435005; actives 0.8% (n = 300,000);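 active means all replicates at 75% or more, or half of them and the mean; inconclusive means half reach 75% but not the mean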;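 further: 0% = cytokine-treated negative control wells and 100% = positive control rescue; higher means more ATP so stronger rescue from cytokine killing; wells of about 40 µL received 100 nL stock; the first replicate is given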
Calb FLC: affects C. albicans growth with fluconazole. C. albicans CaCi-2 (fluconazole-resistant clinical isolate) + fluconazole, Alamar Blue growth, 48 h. growth inhibition, % (test concentration not listed). actives 0.57% (n = 300,000). AID 1979;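 active means most replicates above 75%; inconclusive means exactly half above 75%; inactive means most below 75%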;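 further: all wells also contain fluconazole at 8 µg/ml as a sub-toxic cotreatment; 0% = median of DMSO wells and 100% = median of geldanamycin control wells; wells of about 8 µL received 7.5 nL stock; the first replicate is given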
ALR inh: blocks human ALR sulfhydryl oxidase activity; P55789; purified ALR, DTT oxidation, H2O2 HRP-luminol luminescence; inhibition, % (no concentration beside the values); actives 3.8% (n = 290,000);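 active means mean and each replicate at 75% or more; inconclusive means only one of the two met; inactive means neither met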;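 further: stock transfer was 7.5 nL into about 7.5 µL; 0% = neutral wells and 100% = wells with inactivated enzyme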
Target sequence (P55789 whole entry, looked up): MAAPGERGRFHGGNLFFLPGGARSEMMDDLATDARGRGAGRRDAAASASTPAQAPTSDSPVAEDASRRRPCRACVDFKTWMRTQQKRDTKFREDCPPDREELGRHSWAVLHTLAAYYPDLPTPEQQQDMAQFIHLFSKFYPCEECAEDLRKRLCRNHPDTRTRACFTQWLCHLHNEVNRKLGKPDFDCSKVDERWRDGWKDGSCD
Ecoli rRNA inh OD600: further read-out of Ecoli rRNA inh, marked with its call; OD600 change, %; measured here: OD600 growth;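 optical density of the mix in the first replicate; 0 = DMSO median and -100 = no signal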
Ecoli rRNA inh RFP: recorded beside Ecoli rRNA inh, whose call it bears; RFP signal change, %; measured here: RFP humanized mutant strains;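 first replicate; 0 = DMSO median and -100 = no signal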
* hit, by the source's call; i = inactive; ? = inconclusive; . = not tested or not shown.

SMILES	T cruzi repl	Ecoli rRNA inh	Ecoli rRNA inh OD600	Ecoli rRNA inh RFP	FGF22 binding	RanGTP-Impb inh	AF4-AF9 inh	Beta cell apopt	Calb FLC	ALR inh
CCOc1ccc(S(=O)(=O)N(C)c2ccc(OCC(=O)Nc3nc4ccccc4s3)cc2)cc1	-34	.	.	.	.	-0.2	.	92*	-3	-1
COc1ccccc1/C=C/C=N/NC(=O)c1cc(-c2ccco2)[nH]n1	11	.	.	.	i	-3.6	11	2	10	98*
COc1cccc(C(=O)NCC(=O)OC(C)C(=O)NC23CC4CC(CC(C4)C2)C3)c1 (stereo not drawn)	.	-8	-32	0.2	i	.	-0.5	-1	.	-24
CC1CCN(S(=O)(=O)c2ccc3c(c2)CCN3C(=O)C2CCC2)CC1	-4	.	.	.	i	-0.5	-0.8	-5	-29	2
C=C(C)CNC(=O)c1ccc(OC2CCN(C(=O)COC)CC2)cc1	-15	1	5	-1.5	i	-0.7	-14	-1	4	.
CCOc1ccccc1N(CC(=O)N1CCC(C)CC1)S(=O)(=O)c1ccc(C)cc1	12	-28	-40	3.0	i	2.9	-1.2	.	-3	-51
Cc1c(CCC(=O)NCCCCCC(=O)O)c(=O)oc2c(C)c3oc4c(c3cc12)CCCC4	-4	-21	-33	-4.6	i	-3.0	1.0	-4	-4	25
COc1ccc(NC(=O)NNC(=O)COc2ccc([N+](=O)[O-])c(C)c2)cc1OC	7	-4	-2	1.5	i	6.1	1.1	0	3	7
Cc1cccc2cccnc12	.	-1	-4	-0.3	i	.	.	1	.	-5
COc1ccccc1NC(=O)Cn1c(CCC(=O)O)ccc1-c1ccccc1	2	5	-3	-0.3	i	-2.0	2.7	-5	1	3
CCN1CCN(Cc2nc3cc(NC(=O)COc4ccc([N+](=O)[O-])cc4)ccc3n2C)CC1	20	12	18	3.0	i	-2.5	1.3	.	?	0
O=C1c2[nH]nc(-c3ccccc3O)c2C(c2ccc(F)cc2)N1Cc1ccco1 (stereo not drawn)	-3	.	.	.	.	-0.7	.	0	14	-2
CCOc1ccccc1N1CCN(C(=O)Cc2ccc(S(=O)(=O)N3CCOCC3)s2)CC1	1	7	-1	1.8	i	2.7	2.0	0	10	14
CCCN(c1ccccc1F)S(=O)(=O)c1c[nH]c(C(=O)OC)c1	5	-16	-15	2.9	i	-1.9	-1.2	.	-6	-2
COCCSc1nnc(-c2cnccn2)o1	-3	.	.	.	.	8.4	.	-5	-5	-13
Cc1ccc(S(=O)(=O)N2CCN(S(C)(=O)=O)CC2)cc1	-5	.	.	.	.	3.5	.	-9	-12	56
COc1ccc(CCNC(=O)Cn2c(=O)n(CC3CCCO3)c(=O)c3cc(OC)c(OC)cc32)cc1OC (stereo not drawn)	-13	3	-2	-0.4	i	5.1	11	0	1	-1
COc1ccccc1Cn1cnc2cccnc21	2	.	.	.	.	6.9	.	-4	19	2
O=C(O)C(Oc1ccc2ccccc2c1)c1ccccc1 (stereo not drawn)	0	.	.	.	i	-0.9	3.0	3	-7	-9
CCCOc1ccc(N2CC(C(=O)Nc3ncccc3C)CC2=O)cc1 (stereo not drawn)	4	.	.	.	.	4.7	.	-20	2	-1
CC1(C)CC(=O)C2=C(C1)Nc1ccccc1NC2c1ccc(F)c(F)c1 (stereo not drawn)	16	2	-15	26	i	0.4	-1.7	8	8	99*
CC1(C)CC(=O)c2cnc(N3CCc4ccccc43)nc2C1	17	-34*	-15*	-6.3*	i	7.1	-9.5	1	-1	2
COC(=O)c1cccc(C(=O)Oc2cccc(Br)c2)n1	-5	.	.	.	.	?	.	1	-6	-6
CSc1ncccc1C(=O)OCC(=O)N1CCOCC1	-9	.	.	.	.	4.2	.	.	17	-8
COc1ccccc1CNC(=O)CC(C)C	-2	.	.	.	.	0.2	.	.	-16	-5
COc1ccc(CC(=O)Nc2ccc(C(=O)O)cc2NC(=O)Cc2ccc(OC)cc2)cc1	-1	16	18	2.2	i	4.7	-0.7	0	-1	-11
CC(C)N(C(=O)CSc1nnc(NC2CC2)s1)c1ccccc1	.	2	-10	0.4	i	.	1.7	0	.	.
COc1ccccc1CNC(=O)CSc1nc(=O)n(Cc2ccncc2)c2c1CCC2	-1	12	17	-1.0	i	-4.9	-0.9	-3	9	.
CCSc1nc(N2CCCCC2)c2c(c1C#N)CCCC2	25	.	.	.	.	2.7	.	-3	-1	.
O=C(Nc1ccccc1C(F)(F)F)c1ccccn1	-6	1	-4	1.4	i	10	-5.1	-7	4	-12
Cc1ccc(N2CC(C(=O)NCCS(=O)(=O)N3CCN(c4ccccc4)CC3)CC2=O)cc1 (stereo not drawn)	-9	2	10	-1.0	i	4.1	0.4	.	-6	-12
Cc1ccc(C)n1-c1nnc(N2CCC(C(=O)NCCCN3CC(C)CC(C)C3)CC2)s1 (stereo not drawn)	26	17	11	-0.6	i	3.5	11	-1	29	15
O=C(N/N=C/c1cccc(O)c1)c1ccc2c(c1)OCCO2	-7	-21*	14*	-1.6*	i	-4.6	-8.3	4	0	54
CC(C)(C)c1ccc(C(=O)NC(=O)COC(=O)CCS(=O)(=O)c2ccccc2)cc1	.	6	8	2.2	i	.	0.5	-3	.	1
Cc1ccc(C(=O)NCCc2nnc3ccc(SCC(=O)Nc4ccc(C)cc4C)nn23)cc1	3	-11	7	17	i	-0.4	4.7	2	-9	-6
O=C(CCCSc1nc2ccccc2s1)NCc1ccc2c(c1)OCO2	27	-28*	-12*	8.5*	i	-6.2	-79	-16	-57	.
Cc1ccc(NC(=O)C2CCCN(S(=O)(=O)c3c(C)noc3C)C2)cc1F (stereo not drawn)	-2	.	.	.	.	1.6	.	-3	2	-6
COc1cc(/C=N/NC(=O)c2ccc(CSc3nncn3C)cc2)ccc1OCC(=O)N1CC(C)OC(C)C1 (stereo not drawn)	14	3	-5	0.6	i	5.4	-1.8	-6	-3	0
CCN1C(=O)c2cccc3c(NC(=O)c4ccc5c(c4)OCCO5)ccc1c23	3	.	.	.	.	-6.6	.	-19	-15	-4
CC(C(=O)NC1C=CS(=O)(=O)C1)N1C(=O)/C(=C/c2ccc(Cl)cc2)SC1=S (stereo not drawn)	4	-28	-27	-2.7	i	3.0	2.9	-2	-18	1
COc1ccc(/C=N/NC(=O)c2ccc3nc[nH]c3c2)c(OC)c1	6	7	9	-1.0	i	0.0	-0.4	-6	-1	.
O=C(NCC1COc2ccccc2O1)c1ccc(Cl)c(S(=O)(=O)N2CCCC2)c1 (stereo not drawn)	.	0	-15	2.6	i	.	0.6	-2	.	.
COc1ccc(/C=N/NC(=O)C(=O)N2CCCCCC2)cc1	-11	12	8	0.4	i	-2.1	-1.2	-4	2	-1
Cc1ccc(CC(=O)OCCNC(=O)c2cccnc2)cc1	-6	.	.	.	.	?	.	-10	-1	1
CC1(C)CC2CC(C)(CN2S(=O)(=O)c2cccc(C(N)=O)c2)C1 (stereo not drawn)	.	0	-6	1.4	i	.	4.3	1	.	-2
CCC(C)(C)C1CCc2c(sc(NC(=O)c3ccoc3C)c2C(N)=O)C1 (stereo not drawn)	14	7	0	2.3	.	0.3	.	3	8	-3
Cc1csc(=O)n1CC(=O)OCc1cccc2ccccc12	-4	.	.	.	.	-0.3	.	-1	9	-10
CC(C)c1cc(CNC(=O)CC2C(=O)NCCN2CC2CCCCC2)on1 (stereo not drawn)	0	10	5	-0.8	i	5.1	-1.6	3	-17	.
Cc1ccc(S(=O)(=O)N2CCC(NC(=O)c3cccnc3)CC2)cc1Cl	5	1	0	-0.7	i	0.7	2.4	2	28	-10
O=C1/C(=C/c2cccs2)CCC1C1CCCC1 (stereo not drawn)	5	6	4	0.9	i	-2.3	0.6	-1	-35	-3
O=C(c1ccccc1)N1CCN(S(=O)(=O)c2cccc(NS(=O)(=O)c3ccccc3)c2)CC1	11	-9	-17	-0.4	i	-2.6	0.5	.	-1	-5

6 compounds drawn at random from those above, as already listed:
SMILES	T cruzi repl	Ecoli rRNA inh	Ecoli rRNA inh OD600	Ecoli rRNA inh RFP	FGF22 binding	RanGTP-Impb inh	AF4-AF9 inh	Beta cell apopt	Calb FLC	ALR inh
CC1(C)CC2CC(C)(CN2S(=O)(=O)c2cccc(C(N)=O)c2)C1 (stereo not drawn)	.	0	-6	1.4	i	.	4.3	1	.	-2
O=C(c1ccccc1)N1CCN(S(=O)(=O)c2cccc(NS(=O)(=O)c3ccccc3)c2)CC1	11	-9	-17	-0.4	i	-2.6	0.5	.	-1	-5
COc1ccc(/C=N/NC(=O)c2ccc3nc[nH]c3c2)c(OC)c1	6	7	9	-1.0	i	0.0	-0.4	-6	-1	.
O=C(NCC1COc2ccccc2O1)c1ccc(Cl)c(S(=O)(=O)N2CCCC2)c1 (stereo not drawn)	.	0	-15	2.6	i	.	0.6	-2	.	.
O=C1/C(=C/c2cccs2)CCC1C1CCCC1 (stereo not drawn)	5	6	4	0.9	i	-2.3	0.6	-1	-35	-3
Cc1ccc(CC(=O)OCCNC(=O)c2cccnc2)cc1	-6	.	.	.	.	?	.	-10	-1	1

Part of the list above in a different format:
canonical_smiles | T cruzi repl | Ecoli rRNA inh | Ecoli rRNA inh OD600 | Ecoli rRNA inh RFP | FGF22 binding | RanGTP-Impb inh | AF4-AF9 inh | Beta cell apopt | Calb FLC | ALR inh
Cc1c(CCC(=O)NCCCCCC(=O)O)c(=O)oc2c(C)c3oc4c(c3cc12)CCCC4 | -4 | -21 | -33 | -4.6 | i | -3.0 | 1.0 | -4 | -4 | 25
CCSc1nc(N2CCCCC2)c2c(c1C#N)CCCC2 | 25 | . | . | . | . | 2.7 | . | -3 | -1 | .

Not all compounds are listed; rates above refer to the full screens.
